PKD1 kinase inh – inhibitors of human PKD1 kinase; Q15139; PKD1 kinase fluorescence polarization assay; inhibition, %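 (about 10 µM by stock and volumes)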; 0.056% of 200,000 active; AID 797;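 active means inhibition of 50% or more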;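 further: controls were vehicle for no effect and a reference inhibitor for full effect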
RGS16-Gao – RGS16-Galphao interaction regulator (human). O15492+P09471. bead-based flow cytometry RGS16-Galphao binding, fluorescence; actives lie on both sides. binding response (% of control), % at 10 µM. 0.38% of 220,000 active;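 active means below 25% or above 175%, edge rows of some plates excepted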;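 further: Galphao activated by GDP with aluminum fluoride before binding; 100% = wells without compound and 0% = beads without RGS; some results beyond the cut were filed as inactive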
Target sequence (O15492 whole entry, looked up): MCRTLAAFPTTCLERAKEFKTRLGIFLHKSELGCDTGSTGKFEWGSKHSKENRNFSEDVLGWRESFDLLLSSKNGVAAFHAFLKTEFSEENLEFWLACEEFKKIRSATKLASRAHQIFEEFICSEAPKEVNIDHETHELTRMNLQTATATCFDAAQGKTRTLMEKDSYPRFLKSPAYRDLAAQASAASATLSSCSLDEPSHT
Target sequence (P09471 whole entry, looked up): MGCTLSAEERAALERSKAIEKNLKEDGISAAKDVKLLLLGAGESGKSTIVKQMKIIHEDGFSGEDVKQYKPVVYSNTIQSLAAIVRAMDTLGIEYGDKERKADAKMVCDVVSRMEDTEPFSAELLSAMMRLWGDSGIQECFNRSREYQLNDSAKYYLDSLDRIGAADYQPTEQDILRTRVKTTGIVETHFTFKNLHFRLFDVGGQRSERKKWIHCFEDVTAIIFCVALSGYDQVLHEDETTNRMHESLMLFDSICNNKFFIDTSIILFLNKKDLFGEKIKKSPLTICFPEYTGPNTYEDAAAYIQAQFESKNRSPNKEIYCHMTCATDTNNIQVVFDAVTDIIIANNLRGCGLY
Insulin prom inh – TRM-6 insulin promoter activity inhibition; 0.9% of 130,000 active; inhibition, % at 2 µM; TRM-6 cells (human fetal islet line), insulin promoter-eGFP reporter, imaging; reporter expression induced with tamoxifen;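 active means inhibition above the mean plus 3 SD, with well images judged a real hit on visual review, cut at about 60% in these data, passing the limit was not always enough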
HSV augment – increases HSV replication in cells | HSV replication augmentation in cells, fold increase | 0.005% of 220,000 active | maximum fold increase;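 active means peak rise of 1.5-fold or more in the series; tested in PC3 cells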;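 further: first round at 10 µM; read as green reporter fluorescence; hits show the peak of a series up to 25 µM; 1 = signal of infected wells without compound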
GALR2 agonist – agonists of human galanin receptor 2 (GALR2); O43603; GALR2-expressing cells, agonist activation read-out; activation, %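 (tested at 5 µM)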; 0.48% of 140,000 active; AID 803;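 active means above mean plus 3 SD of all compounds, about 5% in these data, not always enough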;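 further: 0% = vehicle buffer wells and 100% = reference agonist at full effect; tested in CHO reporter cells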
Target sequence (O43603 whole entry, looked up): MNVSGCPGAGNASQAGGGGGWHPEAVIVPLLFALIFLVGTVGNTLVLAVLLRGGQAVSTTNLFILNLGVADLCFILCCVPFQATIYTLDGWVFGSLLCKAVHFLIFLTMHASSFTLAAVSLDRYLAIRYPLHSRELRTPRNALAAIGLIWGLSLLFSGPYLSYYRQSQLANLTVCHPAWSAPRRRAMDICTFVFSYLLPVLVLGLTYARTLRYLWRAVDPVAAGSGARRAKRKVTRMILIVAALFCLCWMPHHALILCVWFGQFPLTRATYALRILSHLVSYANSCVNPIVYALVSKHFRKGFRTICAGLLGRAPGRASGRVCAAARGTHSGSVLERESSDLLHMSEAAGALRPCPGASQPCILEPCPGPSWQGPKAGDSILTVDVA
Insulin prom inh cell count – second read-out of Insulin prom inh, no call of its own (marks repeat the call); normalized cell count, %; measured here: cell count, toxicity; reference of the scale not given here;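 cells exposed to compound for 48 h; stained nuclei by imaging scaled within each plate; lower means fewer cells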
HSV augment primary fold – further read-out of HSV augment, marked with its call; fold increase; compound at 10 µM; measured here: primary screen fold increase 10 uM; tested in PC3 cells;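 GFP signal in the first replicate; 1 = infected wells without compound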
* marks the source's active call; other numbers are inactive results; i = inactive; x = not tested or not shown; & = joins results of further samples.

SMILES | PKD1 kinase inh | RGS16-Gao | Insulin prom inh | Insulin prom inh cell count | HSV augment | HSV augment primary fold | GALR2 agonist
O=C(Nc1ncc([N+](=O)[O-])s1)c1cccc([N+](=O)[O-])c1 | x | 86 | x | x | i | 0.89 | x
COc1cccc(C2C3=C(N=c4s/c(=C\c5cccc(O)c5)c(=O)n42)c2ccccc2CC3)c1OC (configuration not stated) | -1 | 102 | -46 | 101 | i | 0.83 | -1.2
CC(=O)c1cc2c(cc1N)OCO2 | -15 | 102 | -23 | 100 | i | 0.91 | -1.8
COc1cc(/C=N/Nc2cc(C)nc(NS(=O)(=O)c3ccc(C)cc3)n2)ccc1O | -6 | 104 | x | x | i | 0.9 | -0.9
O=C(CN1C(=O)NC2(CCCCC2)C1=O)Nc1ccccc1Cl | -6 | 104 | 0 | 101 | i | 0.99 | -0.8
Cc1cc(N2C3CCC2CC(O)(c2ccc(F)cc2)C3)nc(-c2ccccc2)n1 (configuration not stated) | 2 | 119 | 36 | 64 | i | 0.87 | 0.4
Cc1nc2c(C)cccc2c(SC(=N)N)c1CC=C(Cl)Cl | x | 90 | x | x | i | 0.98 | x
Cc1cc(C(=O)OCC(=O)NC2CCCCC2)c(C)o1 | 0 | 101 | -30 | 110 | i | 0.75 | -2.5
Cc1cccc(OCCCN2CCCCCC2)c1 | -5 | 105 | -3 | 160 | i | 0.88 | -2.0
CCN(CC)C(=O)/C(=C\c1ccc2c(c1)OCO2)NC(=O)c1ccc(Br)cc1 | -1 | 102 | -7 | 108 | x | x | -2.3
COCc1cc(C)nc(N)c1C#N | x | 107 | x | x | i | 1 | x
COc1ccc(N2CCN(C(=O)c3oc4ccccc4c3C)CC2)cc1 | -2 | 102 | x | x | i | 1 | x
COCCCNC(=O)CN(c1cc(OC)ccc1OC)S(=O)(=O)c1ccccc1 | 1 | 100 | -65 | 108 | i | 0.95 | -0.9
Cc1ccc2nc(-c3cccc(NC(=O)c4ccco4)c3)[nH]c2c1 | 1 | 98 | x | x | i | 0.9 | -3.8
CCOC(=O)C1C2C=CC3(CN(CCc4ccccc4)C(=O)C13)O2 (configuration not stated) | -5 | 98 | -317 | 66 | i | 0.89 | -1.9

A different layout for some results above:
structure	PKD1 kinase inh	RGS16-Gao	Insulin prom inh	Insulin prom inh cell count	HSV augment	HSV augment primary fold	GALR2 agonist
COCc1cc(C)nc(N)c1C#N	x	107	x	x	i	1	x
Cc1cc(N2C3CCC2CC(O)(c2ccc(F)cc2)C3)nc(-c2ccccc2)n1 (configuration not stated)	2	119	36	64	i	0.87	0.4

More results follow:
SMILES | PKD1 kinase inh | RGS16-Gao | Insulin prom inh | Insulin prom inh cell count | HSV augment | HSV augment primary fold | GALR2 agonist
COc1cc(C(=O)NCC(=O)N/N=C/c2ccc(OC(=O)c3ccco3)cc2)cc(OC)c1OC | 0 | 99 | x | x | i | 0.92 | x
CC(=O)OCC[N+](C)(C)C | -2&19 | 96 | -4&-57 | 130&125 | i | 0.92&0.96 | -0.2&-1.8
O=C1c2ccccc2C(=O)N1CCCSc1nc2ccccc2o1 | 1 | 99 | x | x | i | 1 | -0.5
COc1cccc2c(=O)n(CC(=O)NC3CCCC3)ccc12 | -9 | 108 | x | x | i | 0.85 | -1.6
CN1CCN(C(=O)c2ccc3c(c2)N(Cc2cccc(Cl)c2)C(=O)c2ccccc2S3=O)CC1 (configuration not stated) | -5 | x | x | x | i | 1.4 | -1.8
O=C(NCC1CCCO1)c1cc(-c2ccco2)nc2ccccc12 (configuration not stated) | -3 | 56 | x | x | i | 1 | 0.5
COC(=O)c1cc(C#N)c(N2CCN(C)CC2)nc1C | -3 | 103 | x | x | i | 1 | x
O=C(Cc1ccccc1)NN1C(=O)C2C(C1=O)C1C=CC2C12CC2 (configuration not stated) | 8 | 113 | -14 | 116 | i | 0.87 | -1.3
COc1cc(C2C(C(=O)c3ccco3)=C(O)C(=O)N2CCc2ccccc2)ccc1O (configuration not stated) | 1 | 97 | x | x | i | 1 | -1.1
CS(=O)(=O)c1cnc(-c2ccccc2)nc1Oc1ccc(F)cc1 | 1 | 101 | -67 | 107 | i | 0.9 | -0.7
COc1cccc(/C=N/NC(=O)c2ccccc2N(Cc2ccccc2)S(=O)(=O)c2ccccc2)c1OC | 1 | 98 | 29 | 44 | x | x | -1.1
CC(C)(C)NC(=O)CN1CCC(O)(c2ccc3c(c2)OCO3)CC1 | -9 | 97 | -11 | 103 | i | 0.96 | -2.0
CCCCC(=O)NC1(C(F)(F)F)NC(=O)N(Cc2ccccc2)C1=O (configuration not stated) | -3 | 239 | -83 | 37 | i | 1.1 | x
COC(=O)CC1C(=O)NCCN1C(=O)CSc1nnnn1-c1ccc(Cl)cc1 (configuration not stated) | -1 | 103 | 6 | 118 | i | 0.95 | x
CCn1c(C)nc2cc(C(=O)NNS(=O)(=O)c3c(F)cc(F)c(Cl)c3F)ccc21 | -4 | 86 | x | x | i | 0.96 | x

Whole records as entered above. Values in the order: PKD1 kinase inh | RGS16-Gao | Insulin prom inh | Insulin prom inh cell count | HSV augment | HSV augment primary fold | GALR2 agonist
Shown for COc1cccc2c(=O)n(CC(=O)NC3CCCC3)ccc12 → -9 | 108 | x | x | i | 0.85 | -1.6
Shown for COc1cc(C(=O)NCC(=O)N/N=C/c2ccc(OC(=O)c3ccco3)cc2)cc(OC)c1OC → 0 | 99 | x | x | i | 0.92 | x
Shown for CCCCC(=O)NC1(C(F)(F)F)NC(=O)N(Cc2ccccc2)C1=O (configuration not stated) → -3 | 239 | -83 | 37 | i | 1.1 | x
Shown for CC(=O)OCC[N+](C)(C)C → -2&19 | 96 | -4&-57 | 130&125 | i | 0.92&0.96 | -0.2&-1.8
Shown for COC(=O)CC1C(=O)NCCN1C(=O)CSc1nnnn1-c1ccc(Cl)cc1 (configuration not stated) → -1 | 103 | 6 | 118 | i | 0.95 | x

Next records follow:
SMILES | PKD1 kinase inh | RGS16-Gao | Insulin prom inh | Insulin prom inh cell count | HSV augment | HSV augment primary fold | GALR2 agonist
CCC(N1CCOC1=O)S(=O)(=O)c1ccc(C)cc1 (configuration not stated) | -5 | 100 | -47 | 54 | i | 0.96 | -1.8
COc1ccc(Oc2ncc(CN3CCN(c4ccccc4)CC3)s2)cc1 | -7 | 102 | 31 | 98 | i | 1.1 | -2.4
O=C(Nc1nc2c(c(=O)[nH]1)CCCC2)C1CC1 | 0 | 103 | -50 | 110 | i | 1 | -0.9
COc1ccccc1OCC(=O)OCC(=O)Nc1ncc(Cl)cc1Cl | -7 | 104 | -27 | 126 | i | 0.98 | -0.8
Cc1[nH]nc2c1C1(CCC3(CC1)OCCO3)C(C#N)=C(N)O2 | 17 | 104 | 21 | 98 | i | 0.93 | 0.9
c1coc(CSc2ncnc3c2oc2ccccc23)c1 | x | 99 | x | x | i | 1.4 | x
CCn1c(CN2CCCCCC2=O)nnc1SCc1cnc(-c2ccccc2)s1 | -4 | 94 | x | x | i | 0.9 | -1.4
COc1ccc(OCC(=O)N/N=C/c2ccc(OC)c(OC)c2C(=O)O)cc1 | -5 | 131 | 48 | 87 | i | 1.1 | -0.9
CCCCOC(=O)CNc1nnc(SCC(=O)OCC)[nH]c1=O | 1 | 102 | 19 | 117 | i | 0.91 | -1.6
Cc1ccccc1N=C1NN=C(c2ccccc2F)CS1 | -5 | 106 | x | x | i | 0.98 | -1.2
C1CCN(c2c3c(nc4nnnn24)CCCC3)CC1 | -3 | 103 | 6 | 51 | i | 0.92 | -1.3
O=C(c1cc2c(ccc3ccccc32)oc1=O)N1CCN(CCO)CC1 | -17 | 102 | x | x | i | 1.3 | -0.4
CCCCNC(=O)c1ccc(CNS(=O)(=O)c2ccc(Br)cc2)cc1 | 3 | 96 | 0 | 227 | i | 0.99 | x
CCN(CC)S(=O)(=O)c1ccc(N=NC2=C(O)CC(C)(C)CC2=O)cc1 | -9 | 92 | 16 | 71 | i | 0.97 | 0.3
CCN1c2ccccc2-c2nc3ccccc3n2C1c1ccccn1 (configuration not stated) | -3 | 107 | -19 | 65 | i | 0.96 | 0.3
CC(=O)c1c(COC(=O)c2ccc(C)cc2)nc2ccccc2[n+]1[O-] | x | 86 | x | x | i | 1 | x
CCOC(=O)c1sc(=NC(=O)c2cccc(C)c2)n(C)c1C | 5 | 100 | -21 | 138 | i | 0.71 | x
Cc1ccccc1C(=O)NC1CCN(C(=O)N(c2ccccc2)c2ccccc2)CC1 | -3 | 103 | -14 | 77 | i | 1.1 | -1.8
COCCSc1ccccc1C(=O)N1CCN(Cc2ccc3c(c2)OCO3)CC1 | -1 | 99 | 50 | 114 | i | 0.99 | -0.8
CC(NC(=O)c1sc2cc([N+](=O)[O-])ccc2c1Cl)C(C)(C)C (configuration not stated) | -3 | 15* | x | x | i | 1 | -0.9
CC(Cl)C(=O)NNc1cccc(Cl)n1 (configuration not stated) | -1 | 96 | -3 | 100 | i | 0.98 | -1.0
COc1ccc(C(=O)CN2CCN(S(=O)(=O)c3cccc([N+](=O)[O-])c3)CC2)cc1 | 7 | 102 | 19 | 96 | i | 1 | -0.1
CC(C)(C)C(=O)NC1CCN(C(=O)N2CCCC2)CC1 | -21 | 104 | -25 | 91 | i | 0.95 | -1.7
CCOc1ccc2[nH]c(C)c(CN3CCN(C)CC3)c(=O)c2c1 | 6 | 98 | -29 | 94 | i | 0.95 | -2.2
Cc1ccc(/C=C/C(=O)OCc2nc(N)nc(Nc3ccccc3C)n2)o1 | -2 | 101 | 0 | 122 | i | 0.95 | x
COc1ccc(C2C(C(=O)c3sc(C)nc3C)=C(O)C(=O)N2CCCn2ccnc2)cc1OC (configuration not stated) | -4 | 99 | 19 | 75 | i | 0.93 | -1.7
O=C(NCc1ccco1)C(=O)NCC1OCCN1S(=O)(=O)c1cc(F)ccc1F (configuration not stated) | x | 99 | x | x | i | 1 | x
CCOCCn1c(-c2ccc(OC)cc2)nc2ccccc21 | -10 | 110 | x | x | i | 0.94 | -1.2
O=C(COc1ccccc1Cl)NC(=S)Nc1cccc(NC(=O)c2ccccc2Cl)c1 | 8 | 115 | x | x | i | 0.93 | -2.5
O=C(CSc1cccc2cccnc12)NCc1ccco1 | -12 | 107 | 29 | 109 | x | x | -1.3
O=C(Nc1cccc(NC(=O)C2CCCO2)c1)c1ccco1 (configuration not stated) | 14 | 101 | x | x | i | 1.1 | x
COC(=O)c1cc(COc2ccc3c(c2)oc(=O)c2ccccc23)c(C)o1 | -6 | 98 | -6 | 316 | i | 0.84 | -2.1
CCOc1ccc(N2C(=O)CC(Sc3nnnn3-c3ccccc3)C2=O)cc1 (configuration not stated) | -5 | 115 | -189 | 13 | i | 0.79 | x
CCCCCn1c(=O)[nH]c2c(c1=O)CCC2 | -1 | 110 | x | x | i | 0.9 | -0.9
CCO/N=C(/C)c1c(O)cc(C(C)(C)C)n(-c2ccccc2)c1=O | 7 | 99 | 0 | 137 | i | 0.98 | 0.5
COc1ccccc1C1C2=C(N=C3SCC(=O)N31)c1ccccc1CC2 (configuration not stated) | -7 | 103 | 16 | 103 | i | 0.82 | 0.1
O=C1CC(c2ccsc2)c2cc3c(cc2N1)OCCO3 (configuration not stated) | 7 | 100 | x | x | i | 0.83 | -1.7
CC1=CC(=O)C(C(C)C)=C/C1=N/OC(=O)c1cccc([N+](=O)[O-])c1 | -6 | 99 | 16 | 147 | i | 0.88 | -2.0
COc1cc(OC)c(C2C(C#N)=C(C)NC(C)=C2C#N)c(C(=O)O)c1 | x | 99 | x | x | i | 1.1 | x
COc1cccc(OCCOCCNCCO)c1 | -12 | 102 | -45 | 102 | i | 0.93 | 0.2
CC1C(=O)CCCCCCCCCC2C1(N1CCOCC1)CS2(=O)=O (configuration not stated) | -3 | 102 | 41 | 117 | i | 0.92 | -1.2
CCC(C)NC(=O)CSc1nnc(-c2cc(-c3ccc(C)cc3)nc3ccccc23)n1N (configuration not stated) | -2 | 114 | -49 | 74 | i | 0.9 | -0.9
CCOC(=O)C1(C)/C(=N/Nc2ccc(S(N)(=O)=O)cc2)C(=O)C(=O)N1c1ccccc1 (configuration not stated) | 6 | 104 | 28 | 65 | i | 1 | x
CCc1cc2cc(C)ccc2nc1SCC(=O)N1CCN(C(=O)c2ccco2)CC1 | -12 | 125 | -6 | 125 | i | 0.85 | -1.3
C=CCOc1ccc(CNCCO)cc1OCC | 7 | 104 | 20 | 142 | i | 1 | -3.1
CC1(C)Cc2c(sc3nc4n(c(=O)c23)CCC4)CO1 | -5 | 95 | 41 | 86 | i | 1 | 0.3

Some of these compounds in order of their number in GALR2 agonist, largest number first:
smiles,PKD1 kinase inh,RGS16-Gao,HSV augment,HSV augment primary fold,GALR2 agonist
COc1cccc(OCCOCCNCCO)c1,-12,102,i,0.93,0.2
COc1ccccc1C1C2=C(N=C3SCC(=O)N31)c1ccccc1CC2 (configuration not stated),-7,103,i,0.82,0.1
O=C1CC(c2ccsc2)c2cc3c(cc2N1)OCCO3 (configuration not stated),7,100,i,0.83,-1.7
